Screens as filed in PubChem BioAssay.
StopGo RLuc – FMDV 2A StopGo reporter, Renilla signal; HEK cells with a luciferase reporter of 2A StopGo recoding; Potency, µM (series often up to 57.5 µM), inactives show top-dose signal change, negative = less light; 120,000 compounds, 0.32% hits; AID 1745857; active means well fitted falling curve with a large enough effect; inconclusive means small, poorly fitted or top-dose-only effect; inactive means no such curve, though single readings can be large or run the other way; note: nearly all actives have a fitted effect of over 55% in size; overnight with compound
StopGo FLuc – lowers the firefly signal of an FMDV 2A StopGo reporter. HEK cells with a luciferase reporter of 2A StopGo recoding. Potency, µM (top dose mostly 57.5 µM), inactives show at the top dose signal change, negative = less light. 120,000 compounds, 0.23% hits; active = well fitted falling curve with a large enough effect; inconclusive = small, poorly fitted or top-dose-only effect; inactive = no such curve, though single readings can be large or run the other way; note: nearly all actives have a fitted effect of over 60% in size; overnight with compound
Numbers without * were called inactive; ? = inconclusive; & = joins results of further samples; [ ] = dose if it differs, or a comment. % is set by controls: 0 for no effect and ±100 for the full control effect; potency is the fitted concentration of half-maximal effect. This is a subset, so the mix of outcomes need not match the whole.

Sample of the layout:
SMILES	StopGo RLuc	StopGo FLuc
CCCN(CCC)S(=O)(=O)c1ccc2c(c1)N(CC(=O)NC(C)c1ccccc1)C(=O)CS2 (stereo not given)	44%[activator]	-21%
C=CCN(Cc1ccccc1)C(C#CC(=C)C)Cc1ccccc1 (stereo not given)	13%	14%
CS(=O)(=O)c1ccc(NC(=O)c2ccccc2-c2ccc(C(F)(F)F)cc2)cc1	7%	-12%
CSc1ccccc1NC(C)=O	10%	2%
Clc1ccc(-c2csc(NC3CC3)n2)cc1	5%	167%[activator]
CCOc1ccc(CCNC(=O)c2cc3c(-c4ccc(OC)c(OC)c4)nn(C)c3s2)cc1OCC	?	?

Main list, previewed entries included:
SMILES	StopGo RLuc	StopGo FLuc
CCCN(CCC)S(=O)(=O)c1ccc2c(c1)N(CC(=O)NC(C)c1ccccc1)C(=O)CS2 (stereo not given)	44%[activator]	-21%
C=CCN(Cc1ccccc1)C(C#CC(=C)C)Cc1ccccc1 (stereo not given)	13%	14%
CS(=O)(=O)c1ccc(NC(=O)c2ccccc2-c2ccc(C(F)(F)F)cc2)cc1	7%	-12%
CSc1ccccc1NC(C)=O	10%	2%
Clc1ccc(-c2csc(NC3CC3)n2)cc1	5%	167%[activator]
CCOc1ccc(CCNC(=O)c2cc3c(-c4ccc(OC)c(OC)c4)nn(C)c3s2)cc1OCC	?	?
CCN(C(=O)c1cc2c(s1)CCCC2)C1CC1	28%	155%[activator]
O=C1CCc2cc(C(=O)NCc3ccc4c(c3)OCO4)ccc2N1	14%	21%
Cc1nc(-c2cccc(F)c2)sc1CCNC(=O)C(=O)Nc1ccc2c(c1)OCO2	-17%	-11%
c1ccc2c3c(cnc2c1)CCCC3	1%	17%
CCOC(=O)c1ccccc1NC(=O)c1nn(C)c2c1COc1ccccc1-2	-9%	-14%
COC(=O)c1ccccc1NC(=O)C1=CC(c2ccc3c(c2)OCO3)=NS(=O)(=O)N1C	4%	-3%
CCOc1ccc(C2c3c(oc4ccc(C)cc4c3=O)C(=O)N2c2nc(C)c(C)s2)cc1OC (stereo not given)	9%	4%
N#CCc1ccc(OCC(O)Cn2cnc3ccc(Cl)cc3c2=O)cc1 (stereo not given)	-18%	-11%
O=C(Cn1c(=O)n(Cc2ccco2)c(=O)c2cccnc21)Nc1ccccc1F	-5%	-1%
Cc1cc2cc(NS(=O)(=O)c3ccccc3F)ccc2[nH]1	93%[activator]	120%[activator]
CC(C)c1ccc(N2C(=O)N(Cc3cccc([N+](=O)[O-])c3)c3ccccc3S2(=O)=O)cc1	-12%	-33%
O=C(CCSc1nnc(NC2CC2)s1)Nc1cccc(Cl)c1	?	?
CCCC(=O)N/N=C/c1ccccc1	11%	56%[activator]
Cc1ccc(Cn2c(=O)c3cccnc3n(CC(=O)Nc3cc(Cl)ccc3C)c2=O)cc1	-6%	-3%

A different layout for 3 compounds above:
compound,StopGo RLuc,StopGo FLuc
CCOc1ccc(C2c3c(oc4ccc(C)cc4c3=O)C(=O)N2c2nc(C)c(C)s2)cc1OC (stereo not given),9%,4%
O=C1CCc2cc(C(=O)NCc3ccc4c(c3)OCO4)ccc2N1,14%,21%
CSc1ccccc1NC(C)=O,10%,2%

Going on with the list:
SMILES	StopGo RLuc	StopGo FLuc
Cc1nc(-c2cc3ccc(OCC(=O)N4CCOCC4)cc3oc2=O)cs1	13%	23%
COc1ccc(C(C)=O)cc1CN1CCCCCCC1	-5%	-7%
Cc1cc(C)cc(NC(=O)CS(=O)(=O)Cc2nc(-c3ccccc3C)oc2C)c1	15%	-4%
COc1cc(=O)n(-c2ccccc2C)nc1C(=O)Nc1cc(Cl)ccc1C	6%	1%
CCOc1ccc(NS(=O)(=O)c2cc(-c3cnc(C4CC4)o3)ccc2C)cc1	4%	-9%
Cn1c(=O)c2c(ncn2CC(=O)Nc2ccc(Br)cc2)n(C)c1=O	15%	0%
Cc1cccc2cc(CN(Cc3ccccc3)C(=O)c3ccco3)c(=O)[nH]c12	11%	-4%
Cc1ccc(Cn2c(=O)c3ccc(C(=O)NC4CCCC4)cc3n3c(=O)[nH]nc23)cc1	-12%	-6%
Cc1c(C(=O)OCc2ccccc2)sc(=S)n1-c1ccc(Cl)cc1	7%	53%[activator]
O=C(CCc1ncc(-c2ccccc2)o1)Nc1nccs1	6%	13%
Cc1ccc(C(=O)Nc2nnc(S(=O)(=O)N3CCc4ccccc43)s2)cc1	-5%	-3%
COc1cc2cc(C(=O)NCC(=O)Nc3ccc4c(c3)OCO4)n(C)c2c(OC)c1OC	18%	83%[activator]
CCOc1ccc(Nc2ncnc3scc(-c4ccc(OC)cc4)c23)cc1	6%&1%	11%&-17%
Cc1cc(N2CCOCC2)nc(Nc2ccc(NC(=O)CC3CCCC3)cc2)n1	?	?
COc1ccc(Cl)cc1NC(=O)c1cc2c(s1)-c1ccccc1OC2	-12%	-10%
CN(CC(=O)Nc1ccc(OC(F)(F)F)cc1)C(=O)c1n[nH]c2ccccc12	-3%	11%
COc1ccc(OCCn2c(C3CC(=O)N(c4ccc(F)cc4)C3)nc3ccccc32)cc1 (stereo not given)	40%[activator]	15%
CC(NC(=O)CCl)c1ccc2c(c1)CCCC2 (stereo not given)	-15%[1.06 µM]	3%
COC(=O)C(C)Sc1ncnc2c1c(-c1ccccc1)cn2-c1ccc(F)cc1 (stereo not given)	-12%	-10%
FC(F)(F)c1ccc(/C=N/Nc2cccc(Cl)c2)cc1	17%	156%[activator]
Cc1cc(C)cc(NC(=O)CSc2nnc(COc3ccccc3Cl)o2)c1	12%	35%[activator]
CC(OC(=O)c1ccc2ccccc2n1)C(=O)NC(N)=O (stereo not given)	4%	10%
Cc1cccc(Cn2c(-c3ccccc3)nc3ccccc32)c1	-3%	24%
Cc1cn2c(=O)cc(COc3ccc(C(C)(C)C)cc3)nc2s1	-14%	-18%
CC(C)NC(=O)Cc1csc2nc(-c3ccccc3)cn12	-9%	-1%
CCOC(=O)c1sc(N)cc1C	14%	4%
CCc1ccc(NC(=O)CCCc2nnc3n(CCCOC)c(=O)c4sccc4n23)cc1	-7%	-15%
CCN(CC)C(=O)c1ccccc1NC(=O)c1cccc(S(=O)(=O)N2CCC(C)CC2)c1	0%	-7%
CCCCOc1ccc(C#N)cc1OCC	16%	11%
COc1cc(C#N)ccc1OC(C)C(=O)c1ccc(F)cc1 (stereo not given)	13%	18%
CC1=Nc2cc(C(=O)NCc3ccccc3Cl)ccc2Sc2c(C)ccc(C)c21	57%[activator]	17%
Cc1ccc(OCC(=O)N2CCN(S(=O)(=O)c3cccs3)CC2)cc1	10%	13%
Cc1ccc2[nH]cc(CCN3CC(C(=O)NCCCOC(C)C)CC3=O)c2c1 (stereo not given)	-5%	-2%
Cc1csc2nc(COc3ccc(F)cc3F)cc(=O)n12	-6%	12%
CC(C)CCNC(=O)C1(C)Cn2c(ccc2-c2ccco2)C(=O)N1Cc1ccccc1F (stereo not given)	4%	-4%
Cc1cccc(Cn2c(C)c(C)c3cc(C(=O)NCc4ccco4)ccc32)c1	41%[activator]	30%[activator]
Cn1c(=O)c2c(ncn2CCC(=O)Nc2ccccc2C(=O)c2ccccc2)n(C)c1=O	5%	19%
O=C(Nc1ccc(N2CCCCC2)c2ccncc12)C1CCC1	-5%	8%
COc1ccc(NC(=O)c2ccco2)cc1NC(=O)COc1ccc(C)cc1C	6%	3%
COCCN(Cc1ccco1)C1CCCC1	4%	-1%
CCCNC(=O)CCc1nnc2ccc(N3CCN(c4cccc(OC)c4)CC3)nn12	-5%	7%
CCCCOc1ccc(/C=C/C(=O)c2ccc3c(c2)OCCO3)cc1OC	-11%	15%
Cc1ccc(Cn2c(CNC(=O)CCc3ccccc3)nc3cccnc32)cc1	40%[activator]	-9%
COCCCNC(=O)Cc1c(C)c2ccc(OC(C)=O)c(OC(C)=O)c2oc1=O	26%	36%[activator]
Cc1nc2ccccc2nc1SCC(=O)Nc1ccccc1OC(C)C	?	?
COc1ccccc1N1CCN(C(=O)c2cc3ccc4ccc(C)[nH]c4c3n2)CC1	20%	6%
CCOc1ccc(/C=C/C(=O)c2cccc(C#N)c2)cc1OC	1%	-4%
CC(=O)Nc1ccc(C)cc1-c1nc2ccccc2n(Cc2cccc(Br)c2)c1=O	-14%	-23%
Cc1cccc(C(=O)Nc2sc3c(c2C(=O)NCc2ccccc2)CCC3)c1	2%	0%
CN(C)CCCn1c(-c2cccc(OC(F)(F)C(F)F)c2)n[nH]c1=S	43%[activator]	-16%
CCN(C(=O)Nc1cn(CC(C)C)c(=O)c2ccccc12)c1cc(C)ccc1C	-3%	-2%
CN(C)C(=O)c1cc(=O)[nH]c2ccc(S(=O)(=O)Nc3ccc(F)cc3)cc12	105%[activator]	11%
CSc1nc2n(n1)C(c1ccc(F)cc1)C1=C(CCCC1=O)N2 (stereo not given)	14%	19%
COc1ccc(-c2cc(C(=O)Nc3c(C(=O)c4ccc(C)cc4)oc4ccccc34)no2)cc1	6%	1%
Cc1ccc(C2CCCN2S(=O)(=O)c2ccc(C(C)(C)C)cc2)cc1 (stereo not given)	1%	0%
Cc1cc(O)c(C(c2ccccc2)N2CCN(c3ccccc3)CC2)c(=O)n1Cc1ccco1 (stereo not given)	1%	-27%
Cc1ccc2c(c1)CCCN2C(=O)c1cc(C)nc2ccccc12	49%[activator]	26%
NC(=O)NC(CC(=O)NC(Cc1ccccc1)c1ccccc1)c1ccccc1 (stereo not given)	13%	-4%
COc1ccccc1Oc1coc2cc(OC(=O)c3cccs3)ccc2c1=O	2%	11%
COc1cc(/C=N/O)ccc1OCC(=O)Nc1c(C)cc(C)cc1C	22%	10%

Record cards, from the list above. Order of values: StopGo RLuc	StopGo FLuc
Cc1cccc(C(=O)Nc2sc3c(c2C(=O)NCc2ccccc2)CCC3)c1 reads 2%	0%
CCOc1ccc(/C=C/C(=O)c2cccc(C#N)c2)cc1OC reads 1%	-4%
CCCNC(=O)CCc1nnc2ccc(N3CCN(c4cccc(OC)c4)CC3)nn12 reads -5%	7%
Cc1cc(O)c(C(c2ccccc2)N2CCN(c3ccccc3)CC2)c(=O)n1Cc1ccco1 (stereo not given) reads 1%	-27%
COc1cc(/C=N/O)ccc1OCC(=O)Nc1c(C)cc(C)cc1C reads 22%	10%

New compounds follow:
SMILES	StopGo RLuc	StopGo FLuc
CCCNc1c(NC(=O)NCCCOC)c(=O)oc2ccccc12	-7%	-3%
Cc1ccc(-n2nc(C(=O)N3CCN(c4ccccc4F)CC3)c(=O)n(C)c2=O)cc1	-5%	-18%
COc1ccc2cnn(CC(=O)N3CCN(c4ccccc4F)CC3)c(=O)c2c1OC	-8%	1%
CCOC(=O)c1c(-c2ccc(C)cc2)csc1NC(=O)c1cc(=O)c2cc(C)cc(C)c2o1	-2%	6%
COc1ccccc1Nc1nc(-c2c[nH]c(C(=O)N3CCCC3)c2)cs1	-3%	0%
CCCOc1ccc2c(=O)c(-c3cc(C(=O)OC)oc3C)c(C)oc2c1	-13%	-16%
COC(=O)c1ccc(NC(=O)c2c(NCc3ccc(C)o3)sc3c2CCCC3)cc1	?	58%[activator]
CCOc1ccc(OCC)c(NC(=O)c2c(C)nn(-c3ccccc3)c2-n2cccc2)c1	-14%	50%[activator]
Cc1c(C(=O)N(C)C)sc2c1c(=O)n(-c1ccc(Cl)c(Cl)c1)c(=O)n2CC(=O)Nc1cccc(C(F)(F)F)c1	-9%	?
COc1cc(NC(=O)CSc2nc(-c3ccccc3)no2)cc(OC)c1	4%	-7%
CC1(C)CC(=O)C2=C(C1)OC(N)=C(C#N)C2c1cccc2ccccc12 (stereo not given)	10%	12%
CCN(CC)c1ccc2cc(-c3nc(-c4ccccc4F)no3)c(=O)oc2c1	-6%	120%[activator]
CN(C(=O)COC(=O)c1n[nH]c(=O)c2ccccc12)c1ccccc1	2%	3%
C#CC[N+](C)(C)CCN1C(=O)C2C3C=CC(C3)C2C1=O (stereo not given)	2%	-3%
CS(=O)(=O)N(CC(=O)Nc1ccc(Br)cc1)c1ccccc1Br	235%[activator]	12%
CCCC(=O)Nc1oc2c(C)cccc2c(=O)c1-c1ccc2c(c1)OCO2	-1%	19%
CC1(c2ccc3c(c2)OCCO3)NC(=O)N(CC(=O)c2c[nH]c3ccccc23)C1=O (stereo not given)	0%	0%
NC(=O)C(Oc1ccc(F)cc1Cl)c1ccccc1 (stereo not given)	5%	12%
Cc1ccc(S(=O)(=O)C(C#N)c2nc3ccccc3nc2NC(C)C)cc1 (stereo not given)	279%[activator]	7%
N#Cc1nc(Cc2ccccc2)oc1NCc1ccc(Cl)cc1	38%[activator]	37%[activator]
COc1cc2ncn(CCC(=O)N3CCSCC3)c(=O)c2cc1OC	-5%	8%
CCCn1c(=O)[nH]c(=O)c2cc(C(=O)Nc3ccc(C)c4ncccc34)cnc21	7%	5%
CCOC(=O)/C(C#N)=C/c1ccc(-c2ccccc2)o1	13%	65%[activator]
O=C(NCc1ccc2c(c1)CCN2C(=O)c1ccccc1)c1cc2ccccc2[nH]1	-14%	0%
CC(C)NCC(O)c1ccc2ccccc2c1 (stereo not given)	-1%	-11%[11.5 µM]
Clc1ccc(-n2nnnc2C2(NC3CCCCC3)CCCCC2)cc1	104%[activator]	-25%
COc1cccc(CNC(=O)c2cccn2-c2nnc(N3CCCC3)s2)c1	76%[activator]	-4%
